Env fusion inh: HIV envelope-mediated fusion inhibition | HeLa-JRFL Env/CEM21 cell fusion, luciferase | inhibition, % at 12.3 µM | actives 1.1% (n = 360,000);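 active means mean replicate inhibition score of at least 50 and every replicate individually at or above 50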;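 further: 0% = plate neutral controls and 100% = maraviroc near 300 nM; one replicate is shown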
The depositor's hits bear a star; [ ] = remark or other dose. These rows are one share of the data, so the mix of outcomes need not match the whole.

For O=C(C[C@@H]1C[C@H]2c3cc(NC(=O)Nc4ccc(C(F)(F)F)cc4)ccc3O[C@H]2[C@@H](CO)O1)NCc1cccnc1 the results were Env fusion inh -7[16.7 µM].
`COC(=O)C1=C(C)N(Cc2ccccc2C(F)(F)F)C(=NCc2ccc(OC)cc2)NC1CCc1ccccc1` (stereo not given) gave Env fusion inh -34.
C[C@H]1CN([C@@H](C)CO)C(=O)Cc2cc(NC(=O)c3ccncc3)ccc2O[C@H]1CN(C)Cc1ccc(Cl)c(Cl)c1 was read as Env fusion inh 5[16.7 µM].
COc1ccc(S(=O)(=O)Nc2ccc3c(c2)C(=O)N([C@@H](C)CO)C[C@H](C)[C@H](CN(C)C)OCCCC[C@@H](C)O3)cc1 was read as Env fusion inh -1[16.7 µM].
COc1ccc(NC(=O)N(C)C[C@@H]2Oc3ccc(N(C)C)cc3C(=O)N([C@H](C)CO)C[C@H]2C)cc1 was read as Env fusion inh -2[16.7 µM].
Screening C[C@H]1CN([C@@H](C)CO)C(=O)c2cccc(NC(=O)Nc3ccc(C(F)(F)F)cc3)c2O[C@H]1CN(C)Cc1ccc(C(=O)O)cc1 returned Env fusion inh -27[16.7 µM].
Screening CO[C@H]1CN(C)C(=O)c2ccc(NC(=O)NC(C)C)cc2OC[C@H](C)N(C)C[C@H]1C returned Env fusion inh -9[16.7 µM].
Screening CCc1nc(N2[C@H](C#N)[C@H](c3ccccc3-c3ccccc3C)[C@H]2CO)sc1C returned Env fusion inh 18[16.7 µM].
COc1ccccc1NC(=O)Nc1ccc2c(c1)C(=O)N(C)C[C@@H](OC)[C@@H](C)CN(C)[C@@H](C)CO2 was read as Env fusion inh 10[16.7 µM].
`COc1ccc(-c2cnc3c(c2)C(=O)N([C@@H](C)CO)C[C@H](C)[C@@H](CN(C)S(=O)(=O)c2ccc(OC)cc2)O3)cc1` gave Env fusion inh 19[16.7 µM].
Cc1cccc(CN(C)C[C@@H]2OCc3cnnn3CCCC(=O)N([C@@H](C)CO)C[C@@H]2C)c1 was read as Env fusion inh -1[16.7 µM].
`CCC(=O)N1CC2(C1)CN(C(=O)CC)[C@@H](CO)c1[nH]c3cc(OC)ccc3c12` gave Env fusion inh -4[16.7 µM].
Screening C[C@H]1CN([C@@H](C)CO)C(=O)CCCn2cc(nn2)CO[C@H]1CN(C)Cc1ccccc1C(F)(F)F returned Env fusion inh -11[16.7 µM].
For C[C@@H]1CCCCO[C@@H](CN(C)Cc2ccccc2)[C@H](C)CN([C@H](C)CO)C(=O)c2cc(NC(=O)c3ccncc3)ccc2O1 the results were Env fusion inh 11[16.7 µM].
Screening O=C(C[C@@H]1CC[C@@H](NS(=O)(=O)c2ccc(F)cc2)[C@@H](CO)O1)NCc1ccc(Cl)c(Cl)c1 returned Env fusion inh -9[16.7 µM].
`O=C(C[C@H]1C[C@H]2c3cc(NC(=O)Nc4ccc(C(F)(F)F)cc4)ccc3O[C@H]2[C@H](CO)O1)NCc1cc(F)ccc1F` gave Env fusion inh 1[16.7 µM].
For CCC(=O)N1C[C@@H](C)[C@H](OC)CN(C)C(=O)c2ccc(NC(=O)c3ccccc3)cc2OC[C@H]1C the results were Env fusion inh -13[16.7 µM].
`CCCCOCC1CN(CCCC)S(=O)(=O)c2c(Oc3ccc(OC)cc3)cccc2O1` (stereo not given) gave Env fusion inh -7.
Screening CS(=O)(=O)N1C[C@@H](O)COC[C@H]2O[C@@H](CC(=O)NC3Cc4ccccc4C3)CC[C@@H]21 returned Env fusion inh -35[16.7 µM].
Screening CO[C@H]1CN(C)C(=O)c2cc(NC(=O)C3CC3)ccc2OC[C@H](C)N(C(=O)c2cccnc2)C[C@@H]1C returned Env fusion inh -8[16.7 µM].
For O=C(N[C@H]1C=C[C@@H](CC(=O)N2CCN(c3ccccc3)CC2)O[C@@H]1CO)c1ccncc1 the results were Env fusion inh 26[16.7 µM].
CO[C@@H]1CN(C)C(=O)c2ccc(NC(=O)C3CCCCC3)cc2OC[C@@H](C)N(Cc2cccnc2)C[C@@H]1C was read as Env fusion inh 11[16.7 µM].
`CC(C)[C@@H](C)/C=C/[C@@H](C)[C@H]1CC[C@@H]2[C@]1(C)CCC1[C@]23C=C[C@]2(C[C@@H](O)CC[C@]12C)N(c1ccc(Br)cn1)O3` (stereo not given in full) gave Env fusion inh 16.
Screening COc1ccc(OC)c(S(=O)(=O)NCC2CCN(C(=O)C(=O)c3cccs3)CC2)c1 returned Env fusion inh -9.
C[C@H](CO)N1C[C@H](C)[C@@H](CN(C)C(=O)Nc2ccc(F)cc2)OCc2ccccc2-c2ccccc2C1=O was read as Env fusion inh 22[16.7 µM].
`O=C(C[C@@H]1CC[C@H](NC(=O)Cc2ccccn2)[C@@H](CO)O1)NCCc1ccncc1` gave Env fusion inh -6[16.7 µM].
For CC(C)NC(=O)N(C)C[C@@H]1OCCCC[C@@H](C)Oc2ccc(NC(=O)Cc3ccccc3)cc2C(=O)N([C@@H](C)CO)C[C@H]1C the results were Env fusion inh 13[16.7 µM].
CO[C@H]1CN(C)C(=O)c2cc(NC(=O)c3nc4ccccc4s3)ccc2OC[C@@H](C)N(Cc2cncnc2)C[C@H]1C was read as Env fusion inh -3[16.7 µM].
For COC(=O)c1cc(=O)nc(NN=Cc2ccccc2)s1 the results were Env fusion inh 2.
`CCCNC(=O)Nc1ccc2c(c1)C(=O)N(C)C[C@@H](OC)[C@H](C)CN(C(=O)C1CCCCC1)[C@H](C)CO2` gave Env fusion inh -8[16.7 µM].

Molecules from the list above containing a Cl atom:
C[C@H]1CN([C@@H](C)CO)C(=O)Cc2cc(NC(=O)c3ccncc3)ccc2O[C@H]1CN(C)Cc1ccc(Cl)c(Cl)c1 was read as Env fusion inh 5[16.7 µM].
Screening O=C(C[C@@H]1CC[C@@H](NS(=O)(=O)c2ccc(F)cc2)[C@@H](CO)O1)NCc1ccc(Cl)c(Cl)c1 returned Env fusion inh -9[16.7 µM].

More records:
COc1ccccc1NC(=O)Nc1ccc2c(c1)C(=O)N(C)[C@H]1CC[C@H](CC(=O)Nc3ccc4c(c3)COC4)O[C@@H]1CO2 was read as Env fusion inh 13[16.7 µM].
For COc1ccccc1Cc1c(C(C)(C)C)nc2c(C)cc(Br)cn12 the results were Env fusion inh -2.
For C[C@H](NC(=O)N(C)C[C@H]1OCc2ccccc2-c2c(n(C)c3ccccc23)C(=O)N([C@@H](C)CO)C[C@H]1C)c1ccccc1 the results were Env fusion inh -16[16.7 µM].
`CN1CCCCC(NC(=O)c2cccc(F)c2)C1=O` (stereo not given) gave Env fusion inh 22.
`CC(C)NC(=O)N(C)C[C@H]1OCCCC[C@@H](C)Oc2ccc(NC(=O)Nc3ccccc3)cc2C(=O)N([C@@H](C)CO)C[C@H]1C` gave Env fusion inh -12[16.7 µM].
CO[C@@H]1CN(C)C(=O)c2ccc(NC(=O)NC(C)C)cc2OC[C@@H](C)N(Cc2ccccn2)C[C@@H]1C was read as Env fusion inh -14[16.7 µM].
`Nc1[nH]c(C(=O)c2ccccc2)c(-c2ccc(Cl)c(Cl)c2)c1C(=O)NCCc1c[nH]c2ccccc12` gave Env fusion inh -206.
Screening CC=Cc1ccc2n(c1=O)C[C@H]1[C@H](CO)[C@@H](C(=O)NCC3CCCCC3)[C@@H]2N1C(C)=O (mixture of isomers) returned Env fusion inh -7[16.7 µM].
`Cc1ccc2c(c1)-n1c(nc3cc(Cl)ccc3c1=O)C(CC(C)C)NC2=O` (stereo not given) gave Env fusion inh 15.
Screening COc1cccc(S(=O)(=O)Nc2ccc3c(c2)[C@H]2C[C@H](CC(=O)NCCc4ccccc4)O[C@H](CO)[C@H]2O3)c1 returned Env fusion inh 24[16.7 µM].
`CO[C@H]1CN(C)C(=O)c2ccc(NC(=O)NC(C)C)cc2OC[C@H](C)N(Cc2ccc(-c3ccccn3)cc2)C[C@@H]1C` gave Env fusion inh -26[16.7 µM].
`C=CCN1C(=O)N(Cc2ccccc2)c2ccccc2S1(=O)=O` gave Env fusion inh 1.
For C[C@H]1CN(C(=O)OC(C)(C)C)CCN1c1ccc(Br)c(C#N)c1 the results were Env fusion inh 8.
Screening CN1C(=O)c2cc(NC(=O)c3ccc(C#N)cc3)ccc2OC[C@H]2O[C@@H](CC(=O)Nc3cc(F)ccc3F)CC[C@@H]21 returned Env fusion inh 19[16.7 µM].
`C[C@H](CO)N1C[C@H](C)[C@H](CN(C)S(=O)(=O)c2cccc(F)c2)Oc2ncc(-c3cc4ccccc4o3)cc2C1=O` gave Env fusion inh 27[16.7 µM].

Of the compounds above, these contain a tert-butyl group.
For COc1ccccc1Cc1c(C(C)(C)C)nc2c(C)cc(Br)cn12 the results were Env fusion inh -2.
For C[C@H]1CN(C(=O)OC(C)(C)C)CCN1c1ccc(Br)c(C#N)c1 the results were Env fusion inh 8.

Fetched by structure from the entries so far (three):
For O=C(C[C@@H]1C[C@H]2c3cc(NC(=O)Nc4ccc(C(F)(F)F)cc4)ccc3O[C@H]2[C@@H](CO)O1)NCc1cccnc1 the results were Env fusion inh -7[16.7 µM].
Screening CC=Cc1ccc2n(c1=O)C[C@H]1[C@H](CO)[C@@H](C(=O)NCC3CCCCC3)[C@@H]2N1C(C)=O (mixture of isomers) returned Env fusion inh -7[16.7 µM].
For CCC(=O)N1C[C@@H](C)[C@H](OC)CN(C)C(=O)c2ccc(NC(=O)c3ccccc3)cc2OC[C@H]1C the results were Env fusion inh -13[16.7 µM].

Other compounds follow:
`CO[C@H]1CN(C)C(=O)c2ccc(NC(=O)C3CCC3)cc2OC[C@@H](C)N(C(=O)CN(C)C)C[C@@H]1C` gave Env fusion inh 6[16.7 µM].
For COc1ccc2c3c([nH]c2c1)[C@H](CO)N(C(=O)Nc1ccc(F)cc1)CC31CN(S(=O)(=O)c2ccccc2)C1 the results were Env fusion inh -26[16.7 µM].
`CC(C)(C)OC(=O)N1CCC2CCN(CCc3ccccc3)CC21` (stereo not given) gave Env fusion inh 9.
Screening O=C(N[C@H](C(=O)N1CCC[C@H]1C(=O)NCCc1ccccc1Cl)C1CCCCC1)c1cccs1 returned Env fusion inh -10.
For CC(C)[C@@H](C)/C=C/[C@@H](C)[C@H]1CC[C@@H]2[C@]1(C)CCC1[C@]23C=C[C@]2(C[C@@H](O)CC[C@]12C)N(C(=O)Cc1ccccc1)O3 (stereo not given in full) the results were Env fusion inh -12.
`CCS(=O)(=O)Nc1ccc2c(c1)C(=O)N(C)[C@@H]1CC[C@H](CC(=O)NCc3ccccc3F)O[C@@H]1CO2` gave Env fusion inh -12[16.7 µM].
Screening O=S1(=O)c2c(cccc2N2CCCCC2)O[C@H](COCc2ccccc2)CN1C1CC1 returned Env fusion inh 102*.
`Cc1cc2c(c(=O)o1)[C@@]1(C(=O)N(C)c3cccc(Br)c31)C1=C(CCCC1=O)O2` gave Env fusion inh -29.
Screening C[C@@H]1CN([C@@H](C)CO)C(=O)c2cc(NC(=O)C3CCCCC3)ccc2O[C@@H](C)CCCCO[C@H]1CN(C)S(C)(=O)=O returned Env fusion inh 5[16.7 µM].
Screening CCN=C1NC(CCc2ccccc2)C(C(=O)OC)=C(C)N1Cc1ccccc1C(F)(F)F (stereo not given) returned Env fusion inh 8.
`O=C(N[C@@H]1CC[C@H](CCn2cc(-c3ccccc3F)nn2)O[C@@H]1CO)c1ccc2c(c1)OCO2` gave Env fusion inh 4[16.7 µM].
`COc1ccc(S(=O)(=O)Nc2ccc3c(c2)C(=O)N([C@@H](C)CO)C[C@H](C)[C@H](CN(C)Cc2ccc(Cl)c(Cl)c2)OCCCC[C@@H](C)O3)cc1` gave Env fusion inh 11[16.7 µM].
For C[C@H]1CCCCO[C@H](CN(C)S(C)(=O)=O)[C@@H](C)CN([C@@H](C)CO)C(=O)c2cc(N(C)C)ccc2O1 the results were Env fusion inh -4[16.7 µM].
For COc1ccc(S(=O)(=O)Nc2cccc3c2O[C@@H](CN(C)Cc2ccc(C(=O)O)cc2)[C@@H](C)CN([C@@H](C)CO)C3=O)cc1 the results were Env fusion inh -3[16.7 µM].
For O=C(CCN1CCCCC1)N[C@H]1CC[C@@H](CC(=O)N2CCC(Cc3ccccc3)CC2)O[C@H]1CO the results were Env fusion inh 8[16.7 µM].
Screening CCN1[C@H](C(=O)N(C)C)[C@@H](CO)[C@@H]2Cn3c(ccc(-c4cccc(C(=O)N(C)C)c4)c3=O)[C@@H]21 returned Env fusion inh 27[16.7 µM].
C=CCN=C1NC(c2ccc(C(F)(F)F)cc2)C(C(=O)OC)=C(C)N1Cc1ccccc1C(F)(F)F (stereo not given) was read as Env fusion inh 9.
For CO[C@H]1CN(C)C(=O)c2ccc(NS(=O)(=O)CC(F)(F)F)cc2OC[C@@H](C)N(C)C[C@H]1C the results were Env fusion inh 1[16.7 µM].
C[C@@H]1CN([C@H](C)CO)C(=O)Cc2cc(NS(=O)(=O)c3ccc(Cl)cc3)ccc2O[C@H]1CN(C)Cc1ccc(-c2ccccc2)cc1 was read as Env fusion inh -3[16.7 µM].
`CO[C@H]1CN(C)C(=O)c2ccc(NC(=O)c3cccc(F)c3)cc2OC[C@@H](C)N(CC2CC2)C[C@H]1C` gave Env fusion inh -8[16.7 µM].
For C[C@H](O)[C@@H]1C(=O)N2CCc3c([nH]c4cccc(-c5ccccc5)c34)[C@@H]2C[C@@H]1N(C)C(=O)OCc1ccccc1 the results were Env fusion inh 71*.
O=C(C[C@H]1C[C@H]2c3cc(NC(=O)C4CCOCC4)ccc3O[C@H]2[C@H](CO)O1)NCCN1CCCCC1 was read as Env fusion inh -3[16.7 µM].
For C[C@H]1CN([C@@H](C)CO)S(=O)(=O)c2ccc(-c3cccnc3)cc2O[C@H]1CN(C)CC1CCOCC1 the results were Env fusion inh 4[16.7 µM].
O=S1(=O)c2ccc(Br)cc2OCCC2CCCCN21 (stereo not given) was read as Env fusion inh 10.
For COc1ccccc1CNC(=O)C[C@H]1C[C@@H]2c3cc(NS(=O)(=O)c4ccc(F)cc4)ccc3O[C@@H]2[C@@H](CO)O1 the results were Env fusion inh 55*[16.7 µM].
Screening COc1ccc2c3c(n(C)c2c1)[C@@H](CO)N(CC1CCOCC1)CC31CCN(C(C)=O)CC1 returned Env fusion inh -3[16.7 µM].
Screening C[C@H]1CN([C@@H](C)CO)C(=O)Cc2cc(NS(=O)(=O)c3cccs3)ccc2O[C@H]1CN(C)S(=O)(=O)c1cccs1 returned Env fusion inh 21[16.7 µM].

Screening data (PubChem BioAssay)
